Screens from PubChem BioAssay.
HIV Env fusion = inhibitors of HIV Env-mediated cell fusion | 360,000 tested, 1.1% active | inhibition, % at 12.3 µM | HeLa-JRFL Env/CEM21 cell fusion, luciferase | AID 651610;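 active = mean replicate inhibition score of at least 50 and every replicate individually at or above 50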;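 also: 0% = plate neutral controls and 100% = maraviroc near 300 nM; one replicate is shown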
UUG fidelity = modulators of start codon recognition fidelity in yeast | S. cerevisiae UUG-firefly luciferase reporter, luminescence/redox ratio | activity score, % at 18.7 µM | 350,000 tested, 0.13% active;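 active = replicate mean at a twofold rise or more, about +100% in these data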;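 also: firefly luciferase made from a UUG start codon reports start codon fidelity; reporter light over untreated wells divided by growth signal over untreated wells; some hits fall short of that in this replicate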
Numbers without * were called inactive; [ ] = dose if it differs, or a comment.

1	COc1cccc(-c2cnc3c(c2)C(=O)N([C@H](C)CO)C[C@H](C)[C@@H](CN(C)C(=O)CN(C)C)O3)c1
2	CCNC(=O)Nc1ccc2c(c1)C(=O)N(C)[C@H]1CC[C@@H](CC(=O)NCc3ccc(F)cc3)O[C@H]1CO2
3	C[C@@H]1CCCCO[C@@H](CN(C)Cc2ccc3c(c2)OCO3)[C@H](C)CN([C@@H](C)CO)C(=O)c2cc(NC(=O)c3ccncc3)ccc2O1
4	COc1ccccc1C#Cc1cnc2c(c1)C(=O)N([C@@H](C)CO)C[C@@H](C)[C@@H](CN(C)C)O2
5	C[C@@H]1CCCCO[C@@H](CN(C)S(=O)(=O)c2ccccc2)[C@H](C)CN([C@@H](C)CO)C(=O)c2cc(NC(=O)C3CCCCC3)ccc2O1
6	CC(C)NC(=O)N[C@@H]1CC[C@@H](CC(=O)NCc2ccc(Oc3ccccc3)cc2)O[C@H]1CO
7	Cc1noc(C)c1S(=O)(=O)Nc1ccc2c(c1)C(=O)N([C@H](C)CO)C[C@H](C)[C@@H](CN(C)C(=O)Nc1ccc(F)cc1)OCCCC[C@@H](C)O2
8	CCS(=O)(=O)NCC[C@H]1CC[C@H](NC(=O)C2CCC2)[C@@H](CO)O1

Assay by compound | 1 | 2 | 3 | 4 | 5 | 6 | 7 | 8
HIV Env fusion | 9[16.7 µM] | -4[16.7 µM] | 2[16.7 µM] | 16[16.7 µM] | -17[16.7 µM] | 18[16.7 µM] | -89[16.7 µM] | 4[16.7 µM]
UUG fidelity | 5 | 17 | 2 | 0 | -2 | 2 | -18 | -10

9	CC(=O)N(C)C[C@@H]1Oc2cc(C3=CCCC3)ccc2S(=O)(=O)N([C@H](C)CO)C[C@@H]1C
10	Cc1noc(C)c1NC(=O)Nc1cccc2c1O[C@H](CN(C)C(=O)NC(C)C)[C@@H](C)CN([C@@H](C)CO)C2=O
11	C#Cc1ccc([C@H]2C=C(C(=O)N3CCOCC3)O[C@@H](OCCCCO)C2)cc1
12	COc1ccc(NC(=O)N(C)C[C@H]2Oc3ccc(NC(=O)Nc4ccc(C(F)(F)F)cc4)cc3CC(=O)N([C@H](C)CO)C[C@H]2C)cc1
13	C[C@@H]1CCCCO[C@@H](CN(C)C(=O)Nc2ccccc2)[C@@H](C)CN([C@@H](C)CO)C(=O)c2cc(NS(=O)(=O)c3ccc(Cl)cc3)ccc2O1
14	CO[C@@H]1CN(C)C(=O)c2ccc(NS(C)(=O)=O)cc2OC[C@@H](C)N(C(=O)C2CCOCC2)C[C@H]1C
15	CNC[C@@H]1Oc2cc(C#CCOC)ccc2S(=O)(=O)N([C@@H](C)CO)C[C@H]1C
16	C[C@H](CO)N1C[C@H](C)[C@@H](CN(C)Cc2ccc(Cl)c(Cl)c2)Oc2ccc(NS(=O)(=O)c3ccc(Cl)cc3)cc2C1=O

Assay by compound | 9 | 10 | 11 | 12 | 13 | 14 | 15 | 16
HIV Env fusion | 13[16.7 µM] | -5[16.7 µM] | 1[16.7 µM] | 4[16.7 µM] | 10[16.7 µM] | 6[16.7 µM] | -11[16.7 µM] | 13[16.7 µM]
UUG fidelity | 10 | 39 | -9 | 0 | -9 | 50 | -6 | 21

17	Cc1ccc(S(=O)(=O)Nc2ccc3c(c2)CC(=O)N([C@H](C)CO)C[C@@H](C)[C@@H](CN(C)Cc2ccc(-c4ccccc4)cc2)O3)cc1
18	C[C@@H]1CN([C@@H](C)CO)C(=O)Cc2cc(N(C)C)ccc2O[C@H]1CN(C)C
19	COc1ccc(S(=O)(=O)N(C)C[C@@H]2Oc3cc(C#CC4CCCC4)ccc3S(=O)(=O)N([C@@H](C)CO)C[C@H]2C)cc1
20	C[C@@H]1CN([C@@H](C)CO)C(=O)Cc2cc(NC(=O)C3CCCCC3)ccc2O[C@@H]1CN(C)Cc1ccc2c(c1)OCO2
21	C[C@H]1CN([C@@H](C)CO)C(=O)c2cc(C3=CCCCC3)cnc2O[C@H]1CN(C)C(=O)Nc1ccccc1
22	CN1C(=O)c2cc(NC(=O)NCc3ccccc3)ccc2OC[C@@H]2O[C@H](CC(=O)O)CC[C@H]21
23	CNC[C@@H]1Oc2c(NC(=O)c3nc4ccccc4s3)cccc2C(=O)N([C@@H](C)CO)C[C@@H]1C
24	CCCNC(=O)C[C@H]1C[C@@H]2c3cc(NC(=O)Nc4ccc(F)cc4)ccc3O[C@@H]2[C@@H](CO)O1

Assay by compound | 17 | 18 | 19 | 20 | 21 | 22 | 23 | 24
HIV Env fusion | -11[16.7 µM] | 3[16.7 µM] | 24[16.7 µM] | 22[16.7 µM] | -13[16.7 µM] | 3[16.7 µM] | -10[16.7 µM] | 7[16.7 µM]
UUG fidelity | 18 | -16 | 0 | 7 | 19 | 0 | 7 | 3

25	Cc1ccc(S(=O)(=O)N[C@H]2CC[C@H](CCNC(=O)C3CCC3)O[C@H]2CO)cc1
26	COc1ccc(NC(=O)N(C)C[C@@H]2Oc3ccc(NS(=O)(=O)c4cn(C)cn4)cc3CC(=O)N([C@H](C)CO)C[C@@H]2C)cc1
27	C[C@H](CO)N1C[C@H](C)[C@H](CN(C)C(=O)Nc2ccccc2)Oc2ccc(NC(=O)Nc3ccc4c(c3)OCO4)cc2C1=O
28	Cc1noc(C)c1S(=O)(=O)Nc1cccc2c1O[C@@H](CN(C)Cc1ccc(C(F)(F)F)cc1)[C@@H](C)CN([C@H](C)CO)C2=O
29	COc1ccc(S(=O)(=O)N(C)C[C@@H]2OCCCC[C@H](C)Oc3ccc(NS(=O)(=O)c4ccc(F)cc4)cc3C(=O)N([C@H](C)CO)C[C@@H]2C)cc1
30	C[C@H]1CN([C@@H](C)CO)C(=O)CCCn2cc(nn2)CO[C@H]1CN(C)Cc1ccc2c(c1)OCCN2C
31	COc1ccc(NC(=O)N(C)C[C@H]2Oc3c(cccc3N(C)C)C(=O)N([C@H](C)CO)C[C@@H]2C)cc1
32	C[C@@H]1CN([C@@H](C)CO)S(=O)(=O)c2ccc(-c3cccc(C#N)c3)cc2O[C@@H]1CN(C)C(=O)C1CC1

Assay by compound | 25 | 26 | 27 | 28 | 29 | 30 | 31 | 32
HIV Env fusion | 10[16.7 µM] | 4[16.7 µM] | -6[16.7 µM] | 17[16.7 µM] | -39[16.7 µM] | -25[16.7 µM] | -18[16.7 µM] | 3[16.7 µM]
UUG fidelity | 41 | -5 | 11 | 2 | 2 | -5 | -3 | -1

Arranged by the number under UUG fidelity (low to high): three from the list above.
26	COc1ccc(NC(=O)N(C)C[C@@H]2Oc3ccc(NS(=O)(=O)c4cn(C)cn4)cc3CC(=O)N([C@H](C)CO)C[C@@H]2C)cc1
32	C[C@@H]1CN([C@@H](C)CO)S(=O)(=O)c2ccc(-c3cccc(C#N)c3)cc2O[C@@H]1CN(C)C(=O)C1CC1
27	C[C@H](CO)N1C[C@H](C)[C@H](CN(C)C(=O)Nc2ccccc2)Oc2ccc(NC(=O)Nc3ccc4c(c3)OCO4)cc2C1=O

Assay by compound | 26 | 32 | 27
HIV Env fusion | 4[16.7 µM] | 3[16.7 µM] | -6[16.7 µM]
UUG fidelity | -5 | -1 | 11

Next section.
33	C[C@@H]1CN([C@H](C)CO)C(=O)c2cccc(NC(=O)Nc3ccccc3)c2O[C@H]1CN(C)Cc1ccc(Cl)c(Cl)c1
34	C[C@@H](NC(=O)C[C@H]1C=C[C@H](NC(=O)CN2CCOCC2)[C@H](CO)O1)c1ccccc1
35	C[C@H]1CCCCO[C@H](CN(C)C(=O)c2ccccc2)[C@@H](C)CN([C@@H](C)CO)C(=O)c2cc(NS(C)(=O)=O)ccc2O1
36	C[C@@H]1CN([C@@H](C)CO)C(=O)c2cccc(N(C)C)c2O[C@@H]1CN(C)CC1CC1
37	COc1ccc(CN(C)C[C@@H]2OCCCC[C@@H](C)Oc3ccc(NS(=O)(=O)c4ccc(F)cc4)cc3C(=O)N([C@H](C)CO)C[C@H]2C)cc1
38	Cc1noc(C)c1NC(=O)Nc1ccc2c(c1)C(=O)N([C@H](C)CO)C[C@H](C)[C@H](CN(C)C(=O)NC1CCCCC1)O2
39	C[C@@H]1CN([C@H](C)CO)S(=O)(=O)c2ccc(C3=CCCCC3)cc2O[C@@H]1CN(C)C(=O)c1ccc(F)cc1
40	CC(=O)N(C)C[C@H]1Oc2cc(-c3ccc(C)cc3)ccc2S(=O)(=O)N([C@H](C)CO)C[C@@H]1C

Assay by compound | 33 | 34 | 35 | 36 | 37 | 38 | 39 | 40
HIV Env fusion | 8[16.7 µM] | -11[16.7 µM] | 4[16.7 µM] | -2[16.7 µM] | -22[16.7 µM] | -13[16.7 µM] | -6[16.7 µM] | 21[16.7 µM]
UUG fidelity | 10 | -4 | 15 | -5 | 20 | 23 | 1 | 48

41	Cc1noc(C)c1S(=O)(=O)N(C)C[C@@H]1OCCCC[C@H](C)Oc2ccc(NC(=O)Nc3ccc4c(c3)OCO4)cc2C(=O)N([C@H](C)CO)C[C@H]1C
42	O=C(C[C@@H]1CC[C@@H](NC(=O)c2ccccc2)[C@H](CO)O1)NCCc1ccncc1
43	Cc1noc(C)c1S(=O)(=O)Nc1ccc2c(c1)C(=O)N([C@H](C)CO)C[C@@H](C)[C@@H](CN(C)C(=O)C1CCCCC1)OCCCC[C@@H](C)O2
44	CCCc1cn(CC[C@@H]2CC[C@@H](NS(=O)(=O)c3ccc(-c4ccccc4)cc3)[C@@H](CO)O2)nn1
45	C[C@@H]1CCCCO[C@@H](CN(C)C)[C@H](C)CN([C@H](C)CO)C(=O)c2cc(NC(=O)Nc3ccc4c(c3)OCO4)ccc2O1
46	C[C@@H]1CN([C@H](C)CO)S(=O)(=O)c2ccc(C#CC3CC3)cc2O[C@H]1CN(C)C(=O)Cc1ccncc1
47	C/C=C/c1cnc2c(c1)C(=O)N([C@H](C)CO)C[C@@H](C)[C@H](CN(C)Cc1ccc(F)cc1)O2
48	C[C@@H]1CCCCO[C@H](CN(C)C(=O)C2CCCCC2)[C@H](C)CN([C@H](C)CO)C(=O)c2cc(NS(C)(=O)=O)ccc2O1

Assay by compound | 41 | 42 | 43 | 44 | 45 | 46 | 47 | 48
HIV Env fusion | 14[16.7 µM] | 3[16.7 µM] | 2[16.7 µM] | -3[16.7 µM] | -9[16.7 µM] | 7[16.7 µM] | -18[16.7 µM] | 3[16.7 µM]
UUG fidelity | -4 | -8 | 12 | -3 | 10 | -11 | 35 | 10

49	COc1ccccc1-c1ccc2c(c1)O[C@@H](CN(C)C(=O)Nc1ccccc1)[C@H](C)CN([C@@H](C)CO)S2(=O)=O
50	CNC[C@@H]1OCCCC[C@@H](C)Oc2ccc(NS(=O)(=O)c3ccc(F)cc3)cc2C(=O)N([C@H](C)CO)C[C@H]1C
51	Cc1noc(C)c1NC(=O)N(C)C[C@H]1Oc2ccc(NS(=O)(=O)c3cccs3)cc2CC(=O)N([C@H](C)CO)C[C@H]1C
52	C[C@@H]1CN([C@@H](C)CO)C(=O)c2cccc(NC(=O)NC3CCCCC3)c2O[C@@H]1CN(C)C(=O)NC1CCCCC1
53	O=C(Nc1ccc2c(c1)OCO2)N[C@H]1CC[C@@H](CCNC(=O)C2CCCCC2)O[C@H]1CO
54	C[C@H](CO)N1C[C@H](C)[C@H](CN(C)C(=O)Nc2ccccc2)OCCCC[C@H](C)Oc2ccc(NS(=O)(=O)c3ccc(F)cc3)cc2C1=O
55	CN(C)Cc1cn(CC[C@@H]2CC[C@H](N)[C@@H](CO)O2)nn1
56	CCC(=O)Nc1ccc2c(c1)C(=O)N(C)[C@@H]1CC[C@H](CC(=O)NCCc3ccccc3)O[C@H]1CO2

Assay by compound | 49 | 50 | 51 | 52 | 53 | 54 | 55 | 56
HIV Env fusion | -38[16.7 µM] | -12[16.7 µM] | -16[16.7 µM] | 10[16.7 µM] | -5[16.7 µM] | -77[16.7 µM] | 14[16.7 µM] | 7[16.7 µM]
UUG fidelity | 0 | 26 | -13 | 10 | 15 | -3 | -3 | 2

57	C[C@H](CO)N1C[C@H](C)[C@@H](CN(C)C(=O)CCCN(C)C)OCCCC[C@H](C)Oc2ccc(N(C)C)cc2C1=O
58	Cc1cc(C(=O)Nc2ccc3c(c2)C(=O)N(C)[C@@H]2CC[C@H](CC(=O)N[C@@H](C)c4ccccc4)O[C@@H]2CO3)no1
59	COc1ccc(CN(C)C[C@@H]2Oc3c(NC(=O)Nc4ccc5c(c4)OCO5)cccc3C(=O)N([C@H](C)CO)C[C@H]2C)cc1
60	CC(C)CC#Cc1cnc2c(c1)C(=O)N([C@H](C)CO)C[C@@H](C)[C@@H](CN(C)Cc1cncnc1)O2
61	Cc1ccc(S(=O)(=O)N(C)C[C@@H]2Oc3ccc(NC(=O)CCC(F)(F)F)cc3C(=O)N([C@H](C)CO)C[C@H]2C)cc1
62	C[C@H](CO)N1C[C@H](C)[C@H](CN(C)C(=O)Nc2ccc(F)cc2)Oc2ncc(C#CC3CC3)cc2C1=O
63	COc1ccc(S(=O)(=O)N(C)C[C@H]2OCCCC[C@@H](C)Oc3ccc(NC(=O)CCCCCC(=O)Nc4ccccc4N)cc3C(=O)N([C@H](C)CO)C[C@@H]2C)cc1
64	C[C@H]1CN([C@@H](C)CO)C(=O)Cc2cc(NC(=O)CCC(F)(F)F)ccc2O[C@H]1CN(C)C(=O)NC1CCCCC1
65	Cc1ccc(-c2ccc3c(c2)O[C@H](CN(C)C(=O)NC(C)C)[C@H](C)CN([C@H](C)CO)S3(=O)=O)cc1
66	COCC(=O)Nc1ccc2c(c1)OC[C@H](C)N(CCC(F)(F)F)C[C@H](C)[C@H](OC)CN(C)C2=O
67	COCc1cn(CC[C@H]2CC[C@H](NC(=O)Nc3ccc(Cl)cc3)[C@@H](CO)O2)nn1

Assay by compound | 57 | 58 | 59 | 60 | 61 | 62 | 63 | 64 | 65 | 66 | 67
HIV Env fusion | 27[16.7 µM] | 0[16.7 µM] | -45[16.7 µM] | -4[16.7 µM] | -18[16.7 µM] | 10[16.7 µM] | 6[16.7 µM] | 22[16.7 µM] | -5[16.7 µM] | 4[16.7 µM] | 9[16.7 µM]
UUG fidelity | 14 | 17 | 11 | 2 | 4 | 22 | -6 | 15 | 17 | 9 | 4

An excerpt; the hit share may differ from the screen's.
